Screens deposited in PubChem by National Center for Advancing Translational Sciences (NCATS).
NS1 function inh: blocks influenza NS1 protein function | S. cerevisiae slowed by influenza A NS1, growth recovery by OD600 | Potency, µM (top dose mostly 46.1 µM), inactives show at the top dose activity, positive = more growth | 270,000 compounds, 0.4% hits; active means well fitted rising curve with a large enough effect; inconclusive means small, poorly fitted or top-dose-only effect; inactive means no such curve, though single readings can be large or run the other way; note: nearly all actives have a fitted effect of over 50% in size
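S. cerevisiae expressing influenza A NS1, grown in glucose, washed, then diluted 1:100 into pH 6.0 -URA galactose medium with 23 nl compound. Growth recovery read as OD600; NS1-free strain serves as control.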
LASV entry inh: inhibitors of Lassa virus binding or cell entry. Lassa virus pseudotype entry inhibition, cell reporter; control for the full effect not named in the record. Potency, µM (doses to about 37.9 µM), without a hit: at the top dose activity change, negative = inhibition, actives largely listed as inhibitors. 300,000 compounds, 1.2% hits; active means well fitted inhibition curve with a large enough effect; inconclusive means small, poorly fitted or top-dose-only effect, or effect the other way; inactive means flat fitted curve, though single readings scatter; tested in HEK293 cells; note: % is set by controls: 0 for no effect and ±100 for the full control effect; nearly all actives have a fitted effect of over 50% in size; luciferase read-out
2A StopGo: FMDV 2A StopGo reporter, luciferase signal | 410,000 compounds, 1.2% hits | human cells with a luciferase reporter of 2A StopGo recoding; control for the full effect not named in the record | AID 1159524 | Potency, µM (series often up to 57.9 µM), for the others: at the top dose signal change, negative = less light; active = well fitted falling curve with a large enough effect; inconclusive = small, poorly fitted or top-dose-only effect; inactive = no such curve, though single readings can be large or run the other way; tested in HEK293T cells; note: % is set by controls: 0 for no effect and ±100 for the full control effect; nearly all actives have a fitted effect of over 45% in size; luciferase light after 4 h
Marburg entry inh: blocks Marburg virus binding to or entry into cells | Marburg virus pseudotyped entry inhibition, cell reporter; control for the full effect not named in the record; about a third of the inactives were read at about 46 µM | Potency, µM (series often up to 37.8 µM), for inactives: at the highest dose activity change, negative = inhibition, hits mostly inhibitors | 300,000 compounds, 1.8% hits; active = well fitted inhibition curve with a large enough effect; inconclusive = small, poorly fitted or top-dose-only effect, or effect the other way; inactive = flat fitted curve, though single readings scatter; tested in HEK293 cells; about a fifth of its hits are not listed in these tables; note: % is set by controls: 0 for no effect and ±100 for the full control effect; luciferase read-out
SARS PLP yeast: inhibitors of SARS-CoV papain-like protease in yeast | AID 485353 | 330,000 compounds, 0.19% hits | Potency, µM (top dose mostly 32.9 µM), for inactives: top-dose activity, positive = growth rescue | S. cerevisiae expressing SARS-CoV PLpro, growth rescue; control for the full effect not named in the record; active means well fitted rising curve with a large enough effect; inconclusive means small, poorly fitted or top-dose-only effect; inactive means no such curve, though single readings can be large or run the other way; note: 0% is about no effect; nearly all actives have a fitted effect of over 55% in size; growth read by luminescence after 48 h
Cruzain Triton: blocks cruzain activity in presence of Triton detergent. 200,000 compounds, 0.43% hits. P25779. purified cruzain, Z-FR-AMC fluorescence, 0.01% Triton. AID 1478. Potency, µM, without a hit: max response, negative = inhibition, most hits filed as inhibitors;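 note: plate controls were neutral wells for no effect and buffer without enzyme for full effect; nearly all actives have a fitted effect of over 40% in size; top concentration of the series not given in the record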
Target sequence (P25779 123-467 limits assumed): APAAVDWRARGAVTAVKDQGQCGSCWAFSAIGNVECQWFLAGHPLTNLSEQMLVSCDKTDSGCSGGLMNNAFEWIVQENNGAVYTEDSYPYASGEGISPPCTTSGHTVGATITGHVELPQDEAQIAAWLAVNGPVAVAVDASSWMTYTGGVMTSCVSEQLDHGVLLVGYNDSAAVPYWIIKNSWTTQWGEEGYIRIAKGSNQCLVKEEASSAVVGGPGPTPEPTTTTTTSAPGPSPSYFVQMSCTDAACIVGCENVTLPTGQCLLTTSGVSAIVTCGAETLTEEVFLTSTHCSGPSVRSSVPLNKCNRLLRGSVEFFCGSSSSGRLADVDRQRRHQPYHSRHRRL
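Read-out: AMC fluorescence (360 nm excitation, 450 nm emission), four reads over 2 min, first-to-third difference used. Conditions: cruzain 1.5 nM, Z-FR-AMC 2 uM, pH 5.5 acetate, 5 mM DTT, 0.01% Triton X-100.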
Cruzain inh noDet: blocks cruzain activity in detergent-free assay; P25779; purified cruzain, Z-FR-AMC fluorescence, no detergent; Potency, µM, without a hit: max response, negative = inhibition, actives largely listed as inhibitors; 200,000 compounds, 2.3% hits; AID 1476;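 note: plate controls were enzyme without inhibitor for no effect and buffer without enzyme for full effect; nearly all actives have a fitted effect of over 40% in size; top concentration of the series not given in the record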
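Purified cruzain at 1.5 nM, pre-incubated 15 min with compound at room temperature in 100 mM sodium acetate pH 5.5, 5 mM DTT, 0.00005% Triton X-100. Reaction started with 2 uM Z-FR-AMC; AMC fluorescence increase over 60 s gives rate.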
RE007 growth inh: less growth of the S. pombe RE007 Vpr strain; 360,000 compounds, 0.21% hits; AID 651644; S. pombe RE007 Vpr strain, BacTiter-Glo ATP luminescence, 24 h; control for the full effect not named in the record; Potency, µM (titrated, usually from 92.2 µM), inactives show at the highest dose activity change, negative = less growth; active = well fitted falling curve with a large enough effect; inconclusive = small, poorly fitted or top-dose-only effect; inactive = no such curve, though single readings can be large or run the other way;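 note: % is set by controls: 0 for no effect and ±100 for the full control effect; nearly all actives have a fitted effect of over 50% in size; the assay follows cell death caused by Vpr and the record does not say whether a fall means rescue or toxicity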
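Fission yeast RE007 carrying one integrated HIV-1 vpr copy, seeded at OD 0.01 in PMG+AL medium with 23 nL pinned compound. Grown 24 h at 30 degrees; viability read by BacTiter-Glo luminescence after 5 min.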
An asterisk follows results filed as active; u = inconclusive; x = not tested or not shown; [ ] = dose if it differs, or a comment. Unless noted, calls come from the whole dose curve; as a rule, active = well fitted curve in the direction sought with a large enough effect; inconclusive = small, poorly fitted or top-dose-only effect, or another doubt; inactive = no such curve, though single readings can be large; an effect the other way counts as inactive or inconclusive. Potency is the fitted concentration of half-maximal effect.

SMILES	NS1 function inh	LASV entry inh	2A StopGo	Marburg entry inh	SARS PLP yeast	Cruzain Triton	Cruzain inh noDet	RE007 growth inh
CC1CCN(S(=O)(=O)N2CCC(C(=O)NCc3ccc4c(c3)OCO4)CC2)CC1	-18%	-4%	-17%	0%	-22%	-3.4%	9%	17%
O=C(Nc1cnc2ccccn2c1=O)c1ccc(Cl)cc1Cl	x	u	-10%	u	-2%	x	x	6%
O=C(COC(=O)c1ccc2c(c1)OCO2)NC1CCCCC1	x	2%	24%	u	-2%	x	x	16%
COc1ccc(C(CNC(=O)C(CCSC)NC(=O)c2ccccc2OC)N2CCCCC2)cc1 (stereo not given)	1%	9%	6%	20%	11%	x	x	1%
Cc1onc(-c2ccccc2)c1C(=O)NNC(=S)NC(=O)/C=C/c1cccs1	-9%	-21%	0%	u	-16%	-3.9%	u	-10%
Cc1ccccc1C(=O)Nc1nnc(S(=O)(=O)N(C)Cc2ccc(Cl)cc2)s1	x	14%[46.1 µM]	26%	x	x	-11%	u	x
COc1ccc(OC)c(CNC(=O)C2CCN(S(=O)(=O)N3CCC(C)CC3)CC2)c1	-10%	x	-17%	x	-1%	x	x	-7%
COc1cccc2cc(-c3cn4cccc(C)c4n3)c(=O)oc12	-14%	u	64%[activator]	u	x	x	x	-9%
COc1ccc(C(=O)Nc2ccc(N3CCCC3)cc2)cc1Br	-4%	u	50%[activator]	-14%	2%	x	x	-14%
O=C(O)CCc1ccc(-c2cccs2)n1CC1CCCO1 (stereo not given)	9%	-9%	15%	10%	-1%	-4.5%	3%	-12%
CCCCOc1ccc(C(=O)OC2CC(C)N(C)CC2C)cc1 (stereo not given)	-2%	3%	6%	u	-5%	2.1%	9%	-1%
CSc1c[n+]2c(n1C)CCC2	0%	u	-13%	-3%	4%	0.6%	3%	-1%
Cc1cc(C)c2c(c1)c(C)cc1nnc(SCC(=O)c3ccccc3)n12	x	0%[46.1 µM]	-6%	13%[46.1 µM]	x	-1.4%	-13%	x
COc1ccc(C(=O)Nc2ccccc2C(=O)N/N=C/c2ccncc2)cc1OC	1%	u	14µM*	u	-7%	x	x	8.9µM*
CCc1ccccc1N1CCN(S(=O)(=O)c2ccc(F)c(C)c2)CC1	-105%	-20%	-12%	-15%[46.1 µM]	0%	1.9%	5%	-7%
COCCN(C(=O)c1ccccc1OC)c1nnc(C)s1	2%	x	-11%	x	-1%	x	x	7%
CNc1c(N)c(=O)oc2ccccc12	x	6%	5%	u	2%	x	x	2%
CCN1C(=O)S/C(=C/c2ccc(Sc3nc4ccccc4[nH]3)o2)C1=O	6%	u	16µM*	u	-12%	-16%	-28%	x
Cc1ccc(S(=O)(=O)NNC(=O)Nc2ccc(Cl)cc2)cc1	1%	2%	0%	-2%	7%	-2.6%	u	-28%
Cc1ccc(NC(=O)CSc2n[nH]c(N)n2)cc1S(=O)(=O)N1CCOCC1	7%	x	-8%	x	0%	x	x	-9%
O=C(NCCc1ccc(Cl)cc1Cl)c1cc([N+](=O)[O-])c[nH]c1=O	-5%	u	-11%	-21%	-7%	x	x	10%
COc1ccc(C)cc1-n1nnnc1SCC1CCCO1 (stereo not given)	-4%	5%	24%	u	-3%	-1.0%	0%	-5%
Cc1nc(-c2ccc(NC(=O)c3cccs3)cc2)cs1	2%	u	-14%	u	-11%	-0.9%	-26%	u
Fc1ccc(/C=N/NC(=S)Nc2ccc(Cl)cc2)cc1F	19%	u	25%	u	15%	-25%	u	-10%
CC(=O)n1c2c(c3ccccc31)OC(N)=C(C#N)C2c1ccc(C(C)C)cc1 (stereo not given)	-29%	-9%	x	3%	-13%	-4.8%	u	-8%

Structural class: those above containing four or more nitrogen atoms.
SMILES	NS1 function inh	LASV entry inh	2A StopGo	Marburg entry inh	SARS PLP yeast	Cruzain Triton	Cruzain inh noDet	RE007 growth inh
Cc1onc(-c2ccccc2)c1C(=O)NNC(=S)NC(=O)/C=C/c1cccs1	-9%	-21%	0%	u	-16%	-3.9%	u	-10%
Cc1ccccc1C(=O)Nc1nnc(S(=O)(=O)N(C)Cc2ccc(Cl)cc2)s1	x	14%[46.1 µM]	26%	x	x	-11%	u	x
COc1ccc(C(=O)Nc2ccccc2C(=O)N/N=C/c2ccncc2)cc1OC	1%	u	14µM*	u	-7%	x	x	8.9µM*
Cc1ccc(NC(=O)CSc2n[nH]c(N)n2)cc1S(=O)(=O)N1CCOCC1	7%	x	-8%	x	0%	x	x	-9%
COc1ccc(C)cc1-n1nnnc1SCC1CCCO1 (stereo not given)	-4%	5%	24%	u	-3%	-1.0%	0%	-5%

(list continues)
SMILES	NS1 function inh	LASV entry inh	2A StopGo	Marburg entry inh	SARS PLP yeast	Cruzain Triton	Cruzain inh noDet	RE007 growth inh
Cc1cc(/C(=N/O)C(C)(C)NO)ccc1Cl	2%	4%	-20%	22%	-11%	-0.8%	0%	-24%
CCCNC(=O)c1ccc2c(=O)n3c(-c4ccc(C)cc4)csc3nc2c1	-4%	x	-9%	x	0%	x	x	-12%
Cn1cccc1CC(=O)N/N=C/c1ccc([N+](=O)[O-])cc1	7%	6%	32%[activator]	-5%	0%	x	x	-5%
COc1cccc(NC(=O)CN(C)C(=O)c2cc(S(=O)(=O)N3CCCCC3)ccc2Cl)c1	x	14%	-1%	u	-10%	x	x	-2%
Nc1cc(OC(=O)c2c(F)cccc2Cl)nn1S(=O)(=O)c1ccccc1	-3%	-25%	-12%	u	4%	x	x	-3%
CC1(C)CC(=O)C(C2C3=C(CC(C)(C)CC3=O)Oc3ccccc32)C(=O)C1 (stereo not given)	-2%	-8%[46.1 µM]	4%	-5%[46.1 µM]	0%	x	x	-20%
O=C(CN(c1ccc(F)cc1)S(=O)(=O)c1ccc2c(c1)OCCO2)N1CCOCC1	-10%	x	23%	x	6%	-1.4%	8%	5%
CN(C(=O)c1nn(C)c2c1COc1ccccc1-2)c1cccc(C(F)(F)F)c1	x	17%[46.1 µM]	-13%	u	x	-0.8%	5%	x
O=C(COC(=O)Cc1c[nH]c2ccccc12)Nc1ccccc1	-5%	27%	0%	21%	25%	-6.0%	-2%	-9%
COc1ccc(NCc2nnc(SCc3ccc(Cl)cc3)n2-c2ccccc2)cc1	u	u	u	u	-43%	-4.9%	13%	-6%
COc1ccc(CN2C(=O)c3oc4ccccc4c(=O)c3C2c2ccc(O)cc2)cc1 (stereo not given)	x	-25%[46.1 µM]	19%	-3%[46.1 µM]	x	1.3%	8%	x
Cc1ccc(C(=O)NCC(=O)N2CCc3ccccc3C2)cc1C	0%	-3%[46.1 µM]	-3%	11%[46.1 µM]	0%	x	x	1%
O=C(CSc1nc2c(c(=O)[nH]1)CCC2)Nc1cccc(Cl)c1	-3%	-3%	-14%	10%	-3%	4.0%	-3%	-4%
Cc1ccc(S(=O)(=O)N(C)C)cc1NC(=O)C(C)NC(C)c1cccs1 (stereo not given)	13%	-43%	-26%	-8%	3%	x	x	-4%
O=C(NCCCN1CCN(c2cccc(Cl)c2)CC1)c1nc(-c2ccncc2)no1	0%	-7%	u	u	2%	-3.9%	-13%	-20%
O=C(CNC(=O)[C@@H]1Cc2ccccc2CN1)NC1CCCC1	-10%	x	-4%	x	-4%	x	x	-3%
Cc1ccc(-c2nnc(N3CCOCC3)c3ccccc23)cc1S(=O)(=O)N(C)C	-1%	8%[46.1 µM]	-3%	8%[46.1 µM]	2%	x	x	-20%
O=c1cc(-c2ccccc2Cl)oc2c(NS(=O)(=O)c3cccs3)ccc(O)c12	-7%	x	-1%	x	0%	x	x	22%
CC12CN3CC(C)(CN(C1)C3c1ccc3c(c1)OCO3)C2 (stereo not given)	4%	17%	-7%	-13%	0%	x	x	15%
O=C1c2cccc3c(N4CCOCC4)c([N+](=O)[O-])cc(c23)C(=O)N1c1cccc2ccccc12	u	u	-14%	u	5%	-9.5%	13µM*	2%
CC(=O)Nc1ccccc1-c1nc2ccc(C(=O)N3CCN(c4cc(C)ccc4C)CC3)cc2[nH]c1=O	7%	x	u	x	3%	-6.7%	u	3%
CCc1ccc(CCC(=O)Nc2ccc(Br)cc2)o1	-48%	x	6%	x	-8%	x	x	3%
CCOc1cccc(N2C(=O)CC(N3CCC(C(N)=O)(N4CCCCC4)CC3)C2=O)c1 (stereo not given)	-47%	13%	9%	18%	-19%	2.3%	0%	0%
CCC(=O)OC1(c2cccc(C)c2)CC(C)N(C)CC1C (stereo not given)	1%	-16%	-3%	u	-2%	2.7%	0%	-2%
COC(=O)Cn1c(=O)c2c(nc(Br)n2Cc2ccccc2Cl)n(C)c1=O	-23%	-18%	-29%	6%	-6%	1.5%	-3%	5%

Further structures.
SMILES	NS1 function inh	LASV entry inh	2A StopGo	Marburg entry inh	SARS PLP yeast	Cruzain Triton	Cruzain inh noDet	RE007 growth inh
COc1ccc(C2c3ccsc3CCN2C(=O)NC(C)(C)C)cc1 (stereo not given)	-3%	x	-16%	x	1%	x	x	1%
COc1cc(S(=O)(=O)N(Cc2ccccn2)Cc2ccccc2Cl)ccc1-n1cnnn1	-3%	-8%	32%[activator]	-2%	-8%	-6.1%	u	2%
O=C(Cn1cnc([N+](=O)[O-])n1)N/N=C/c1ccc2ccccc2c1	-10%	1%	-13%	-1%[46.1 µM]	-4%	-6.0%	5%	8%
CCCOc1ccc(CC(=O)NNC(=S)Nc2ccccc2)cc1Br	0%	2%	0%	-2%	u	-9.1%	8%	1%
CC(C)(C)NC(=O)c1ccccc1-c1nc(-c2ccccc2Cl)no1	-66%	5%	9%	-23%	-3%	6.3%	-2%	17%
CC(C)c1ccc(NC(=O)C(=O)C2C(=O)Nc3ccccc32)cc1 (stereo not given)	5%	x	32%[activator]	x	7%	x	x	-19%

As entered above.
CC(C)(C)NC(=O)c1ccccc1-c1nc(-c2ccccc2Cl)no1 in 2A StopGo is entered as 9%
COc1cc(S(=O)(=O)N(Cc2ccccn2)Cc2ccccc2Cl)ccc1-n1cnnn1 in Marburg entry inh is entered as -2%
